From PubChem
KCNQ2 pot – potentiators of rat KCNQ2 potassium channel; Potassium voltage-gated channel subfamily KQT member 2 (Rattus norvegicus), O88943; B-score at 10 µM; hit rate 0.54% among 310,000; CHO-K1 KCNQ2, FluxOR thallium flux fluorescence; active compounds read high;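 active means fluorescence ratio B-score at least 3 SD of library B-scores, with initial fluorescence B-score within 3 SD, cut at about 5.3 in these data; same plate scores as AID 2156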;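 further: B-score of peak minus minimum over baseline fluorescence ratio after K+ and Tl+ stimulus; positive B-score means potentiation of KCNQ2 with more thallium influx and brighter signal; only the inactives scoring about 0 or higher are listed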
Target sequence (O88943 whole entry, looked up): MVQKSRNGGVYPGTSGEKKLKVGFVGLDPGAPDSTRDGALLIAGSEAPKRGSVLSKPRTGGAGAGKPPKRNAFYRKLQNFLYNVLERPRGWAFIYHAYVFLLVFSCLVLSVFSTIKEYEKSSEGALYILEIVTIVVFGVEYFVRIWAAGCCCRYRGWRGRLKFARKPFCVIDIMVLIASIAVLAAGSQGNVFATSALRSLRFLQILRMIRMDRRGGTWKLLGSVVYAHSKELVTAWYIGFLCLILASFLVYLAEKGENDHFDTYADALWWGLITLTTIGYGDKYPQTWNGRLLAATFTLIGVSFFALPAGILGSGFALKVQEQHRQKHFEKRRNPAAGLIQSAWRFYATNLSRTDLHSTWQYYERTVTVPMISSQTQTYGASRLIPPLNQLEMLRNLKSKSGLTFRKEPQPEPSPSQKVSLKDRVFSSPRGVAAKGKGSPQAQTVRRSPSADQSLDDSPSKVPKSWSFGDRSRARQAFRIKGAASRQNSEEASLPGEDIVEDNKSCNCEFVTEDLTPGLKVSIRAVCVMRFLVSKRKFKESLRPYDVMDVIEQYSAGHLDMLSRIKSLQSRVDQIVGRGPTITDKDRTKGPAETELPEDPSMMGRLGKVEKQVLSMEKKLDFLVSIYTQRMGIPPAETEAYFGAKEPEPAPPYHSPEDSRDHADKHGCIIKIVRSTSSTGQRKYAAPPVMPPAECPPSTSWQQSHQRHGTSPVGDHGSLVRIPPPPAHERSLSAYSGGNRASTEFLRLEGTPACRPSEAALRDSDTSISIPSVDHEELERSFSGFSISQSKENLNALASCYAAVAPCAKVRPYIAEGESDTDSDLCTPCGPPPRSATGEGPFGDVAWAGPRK
KCNQ2 pot baseline – recorded beside KCNQ2 pot, whose call it bears; B-score; compound at 10 µM; measured here: initial fluorescence intensity artifact check;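 brightness before thallium and not channel activity; 0 = typical well and far values either way flag optical interference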
* hit, by the source's call.

KCNQ2 pot,KCNQ2 pot baseline,canonical_smiles
0.76,-1.74,Cc1cc(=O)n2c3ccccc3n(CC(O)CN3CCCCC3)c2c1C#N (centres undefined)
1.74,0.05,CC(=O)/C(=N/Nc1ccccc1)Sc1nnc(C(O)c2ccccc2)n1-c1ccccc1 (centres undefined)
0.7,0.32,CCc1nn2c(N3CCOCC3)cc(C)nc2c1-c1ccccc1
0.07,0.93,O=C(NC1CCCC1)C(c1ccsc1)N(C(=O)Cc1cccs1)c1cccc(F)c1 (centres undefined)
1,1.34,Cc1nnsc1-c1nnc(SCC(=O)c2ccccc2)n1C1CC1
0.94,-0.03,COc1ccc(N2CCN(C3CC(=O)N(Cc4ccc(N5CCCC5=O)cc4)C3=O)CC2)cc1 (centres undefined)
1.25,2.11,Cc1ccc(C(C(=O)NC2CCCC2)N(C(=O)CNC(=O)c2ccco2)c2ccccc2)o1 (centres undefined)
0.2,0.87,COCc1nnc(NC(=O)CS(=O)(=O)Cc2ccccc2)s1
1.12,-0.97,Cc1[nH]c2ccccc2c1C(=O)/C=C\c1ccccc1Cl
2.29,-0.82,CCCCN(C)C(=O)Cn1cnc2sc(C)c(S(=O)(=O)N3CCN(c4ccccc4OC)CC3)c2c1=O
1.34,0.08,CC(C)Oc1ccc(C2C(C(=O)c3ccco3)=C(O)C(=O)N2Cc2cccnc2)cc1 (centres undefined)
3.28,-0.62,COc1ccc(NC(=O)Nc2ccccn2)cc1OC
0.47,0.03,COc1ccc(OCC(O)CNS(=O)(=O)c2ccc(NC(C)=O)cc2)cc1 (centres undefined)
2.76,0.12,CCCOc1cc(C)c(Cl)cc1S(=O)(=O)N(CC)CC
0.98,0.29,CNC(=O)c1ccc(-c2ccccc2)s1
0.27,0.14,COc1ccc(CNC(=O)CSc2nnc3c(n2)[nH]c2ccc(C)cc23)cc1
0.29,-1.57,N#Cc1ccc(-c2ccc(OCC(=O)NCC(=O)Nc3ccc(F)c(F)c3F)cc2)cc1
1.19,-2.51,CCN1C(=O)CC(c2ccco2)Sc2ccccc21 (centres undefined)
1.76,-1.25,COc1cc(OC)c(C(=O)N2CCCC2)cc1OC
0.01,0,C=CCN=C(NC#N)SCc1ccccc1
0.72,0.07,COc1ccc(CNC(=O)[C@H](Cc2ccccc2)NC(=O)C2CCN(C(=O)[C@H](C)N)CC2)cc1
0.12,-0.07,CCn1c(SCC(=O)N2CCN(c3ccccc3)CC2)nnc1-c1c[nH]c2ccccc12
0.18,-0.03,Cn1[nH]c(C(F)(F)F)cc1=O
1.28,-0.13,Cc1nc2ccc(C(=O)c3ccccc3)cc2[nH]1
0.48,0,C=CCN1C(=O)C(CC(=O)O)SC1=Nc1c(C)n(C)n(-c2ccccc2)c1=O (centres undefined)
2.17,-0.89,CCn1c(SCC(=O)Nc2ccccc2N2CCOCC2)nnc1-c1ccccc1
0.13,0.01,Cc1c(NS(=O)(=O)c2ccc3c(c2)Cc2ccccc2-3)c(=O)n(-c2ccccc2)n1C
0.13,-1.99,CSc1ccccc1NC(=O)C1=COCCO1
0.97,3.64,COc1ccc(OC)c(-c2nc(C(N)=O)c3[nH]c(=O)n(-c4ccc(F)cc4)c3n2)c1
3.48,-2.64,CC(C)C(NC(=O)CSc1ccc(Cl)cc1)C(C)C
0.09,0.04,CC(C)Oc1ccccc1/C=N/NC(=O)c1ccc(F)cc1
0.93,-1.94,O=C(CSc1ccc2nnc(-c3ccc(F)cc3)n2n1)N1CCOCC1
0.77,0.88,COc1ccc(-c2c(NCCc3ccccc3)c(=O)c2=O)cc1
1.69,-0.58,CCOC(=O)c1c(OCC)[nH]c2ccc(O)cc12
1.02,-0.7,CCOC(=O)Cc1csc(NC(=O)C(NC(=O)C2CCCCC2)C(C)C)n1 (centres undefined)
0.25,0.63,CCn1c(N)c(C(=O)Nc2ccccc2C(=O)OC)sc1=S
2.28,-1.07,CCc1nnc(NC(=O)CCC(=O)N2CCC(Cc3ccccc3)CC2)s1
0.93,0.05,O=c1cc(-c2ccc([N+](=O)[O-])cc2)c2cc3c(cc2[nH]1)OCCO3
2.59,-0.47,COc1ccc(OCC(=O)NNC(=O)c2ccccc2OCc2c(C)noc2C)cc1
1.41,0.37,CC(=O)N1CCN(S(=O)(=O)c2cccc(C(=O)Nc3ccc(C)cn3)c2)CC1
0.42,0.59,FC(F)(F)c1ccc(-c2nnc(-c3ccccn3)c(-c3ccccn3)n2)nc1
1.66,-1.29,O=C(CN1CCN(Cc2ccccc2)CC1)N/N=C/c1cccs1
1.56,1.5,Cc1cc([N+](=O)[O-])nn1CCCC(=O)NC1CCCCC1
0.08,0.91,CC(=O)c1ccc(OCC(O)CN(C)CCOc2ccc(Br)cc2)cc1 (centres undefined)
0.32,-2,Cc1ccc2c(C)cc[n+](CCCS(=O)(=O)[O-])c2c1
1.56,-0.84,O=C(NNC(=O)C1CC=CCC1)c1ccccc1Cl (centres undefined)
0.66,-0.04,CS(=O)(=O)Nc1ccc(C(=O)Nc2ccc(S(=O)(=O)N3CCCC3)cc2)cc1
0.91,0.11,Cc1ccc(NC(=O)c2nc[nH]c2C(=O)N2CCCCC2)c(C(=O)c2ccccc2)c1
0.97,-2.21,CS(=O)(=O)N(Cc1ccccc1)c1ccc(C(=O)NCCSc2ccccn2)cc1
0.03,-0.64,O=C(Nc1cccc(NC(=O)c2cccc([N+](=O)[O-])c2)n1)c1cccc([N+](=O)[O-])c1
0.18,-0.53,N#CCn1c(CCl)nc2ccccc2c1=O
0.93,-0.59,CCOc1ccc(Nc2ncnc3c2cnn3C)cc1
0.15,-0.65,CCOc1cc(NC(=S)Nc2cccc(OC)c2)c(OCC)cc1NC(=O)C1CC1
0.93,-0.03,COc1ccc(/C=C/C(=O)OCC(=O)NCC2CCCO2)cc1 (centres undefined)
1.92,-0.35,COc1cccc(C2NC(=O)NC(C)=C2C(=O)Nc2cc(OC)ccc2OC)c1 (centres undefined)
1.38,-1.37,O=C(CCCN1C(=O)c2ccccc2C1=O)Nc1nnc(C2CC2)s1
0.07,-1.16,CCOC(=O)c1cc(S(=O)(=O)N2CCN(C(=O)OCC)CC2)cn1C
11.3*,-0.16*,CCOC(=O)c1c(NC(=S)NC)sc2c1CC(C)(C)SC2
1,0.01,O=C(Nc1ccc(S(=O)(=O)N2CCCC2)cc1)c1cccc(OC(F)F)c1
0.01,1.01,CC(C)C(CO)N1CCN(Cc2ccccc2)CCC1=O (centres undefined)

Other structures follow:
KCNQ2 pot,KCNQ2 pot baseline,canonical_smiles
0.03,0.61,NC(=S)NN=C1C2CC3CC(C2)CC1C3
0.66,-0.02,Cc1ccccc1-c1nsc(SCC(=O)NCc2ccc3c(c2)OCO3)n1
0.3,0.69,CCN(CC)C(=O)Oc1ccc2c(=O)c(-c3ccc(OC)cc3)c(C)oc2c1
1.37,-1.04,Cc1cccc(C(=O)NCc2nnc(SCC(=O)NC3=NCCS3)n2C)c1
0.3,0.51,COc1cccc(C2/C(=C(/O)c3ccc4c(c3)CC(C)O4)C(=O)C(=O)N2c2nnc(C)s2)c1 (centres undefined)
0.7,0.22,Cc1cc(NC(=O)c2ccc3c(c2)C(=O)N(C(C)(C)C)C3=O)no1
0.36,-1.27,CCCCC(=O)Nc1cccc(C(=O)N/N=C/c2ccc(OC)cc2OC)c1
0.47,0.03,Nc1cc(-c2nn[nH]n2)ccc1F
0.18,-2.15,C=Cc1ccc(Cn2nc(-c3ccccc3)ccc2=O)cc1
1.37,-0.09,CCNS(=O)(=O)c1ccc(CCC(=O)NC2CCCC2)cc1
0.7,0.01,CCOC(=O)Cn1ccc(-c2ccccc2)c(C#N)c1=O
0.22,2.29,CCN(c1ccccc1)S(=O)(=O)c1cc2c3c(c1)CCN3C(=O)CC2
0.3,-0.51,CC1(C)OC2C(CO)OC(n3cnc4c(=S)nc[nH]c43)C2O1 (centres undefined)
0.34,-1.15,C/C(=N\NC(=S)Nc1ccc(C(C)C)cc1)c1ccc2c(c1)OCO2
0.38,-0.47,Cc1nn(-c2nc(-c3ccco3)cc(C(F)(F)F)n2)c(C)c1Br
0.31,-1.08,COc1ccccc1OCCn1cc(C(=O)C(C)C)c2ccccc21
1.44,-0.17,CCC(C)(C)NC(=O)C1CCN(c2nc(C)cc(C)n2)CC1
0.72,-0.84,COc1ccc(CNC(=O)C2CCCN(S(=O)(=O)c3ccc4c(c3)C(C)(C)C(=O)N4C)C2)cc1 (centres undefined)
0.03,-2.69,CSc1ncccc1C(=O)N1CCCC(C(=O)c2ccc3ccccc3c2)C1 (centres undefined)
1.5,-0.05,O=C(NCCCN1CCOCC1)c1ccc(NC(=O)C2COc3ccccc3O2)cc1 (centres undefined)
0.06,-0.71,CCn1c(SCC(=O)NC2CCS(=O)(=O)C2)nnc1-c1ccccc1 (centres undefined)
0.14,-1.3,O=c1c2ccccc2c(/C=N/c2n[nH]c(CCCO)n2)c(O)n1-c1ccccc1Cl
0.85,-2.71,CN(C)S(=O)(=O)c1cccc(NC(=S)N2CCCCC2CO)c1 (centres undefined)
0.05,-1.6,COc1ccc(C(=O)Nc2ccc3nc(N4CCCCC4)cc(C)c3c2)c(OC)c1
0.77,-0.04,COc1cc(-c2nc3cnccn3c2Nc2ccc(C)cc2)ccc1O
0.14,-0.66,CCOC(=O)C1CCN(S(=O)(=O)c2cn(C)cn2)CC1
0.17,-0.39,O=C(O)c1ccccc1SC1CC(=O)N(c2ccc3c(c2)OCO3)C1=O (centres undefined)
0.32,0.99,O=C(c1cnn2c(C(F)(F)F)cc(-c3ccccc3)nc12)N1CCOCC1
0.08,1.59,Cc1c(CNCC(C)c2ccccc2)c(C(=O)O)c(C)n1Cc1ccccc1 (centres undefined)
1.01,1.39,Cc1cc(C(=O)NC2CCCc3c2cnn3-c2ccc(C(C)(C)C)cc2)n[nH]1 (centres undefined)
0.45,-0.76,CCCNC(=O)c1oc2ccc3c(c2c1C)C(=O)CC(C)(C)O3
0.78,0.13,CCOc1ccc(OCCC(=O)NNC(=O)c2cc(OC)c(OC)c(OC)c2)cc1
2.05,-0.05,COCc1nnc(NS(=O)(=O)c2ccc(NC(C)=O)cc2)s1
0.7,-0.03,COc1ccc(N2CCN(C(=O)COC(=O)COc3ccc(C#N)cc3)CC2)cc1
0.75,-0.01,CCCn1nc(C(=O)Nc2ccc3nc(C)sc3c2)c2ccccc2c1=O
1.02,-2.79,COc1cccc(N2CCN(c3cnc4ccccc4n3)CC2)c1
0.29,0.27,Cn1c(N)c(C(=O)COC(=O)c2ccc(Br)o2)c(=O)n(C)c1=O
0.91,0.94,CN1CCC(=NOc2ccc([N+](=O)[O-])cc2)CC1
0.02,0.3,CCCCCCOC(=O)Nc1ccc(S(=O)(=O)Nc2cccc([N+](=O)[O-])c2)cc1
1.77,-0.3,CC(C)(C)C(=O)N1CCN(S(=O)(=O)c2ccc3c(c2)OCCCO3)CC1
1.81,-0.67,O=C(c1ccccc1)N1N=C(C(F)(F)F)CC1(O)c1ccccc1O (centres undefined)
0.02,0.36,COc1ccc(CCNC(=O)c2cc(-c3cc(C)c(C)cc3O)n[nH]2)cc1OC
1.58,-0.01,OCCN=C1CCCc2c1[nH]c1ccc(Br)cc21
0.1,-1.61,COc1ccc(Cl)cc1-n1c(=S)sc2c(=O)[nH]c(SCC(=O)NCCC(C)C)nc21
0.71,-1.43,Oc1ccc(-c2nnc(-c3ccccc3)c(-c3ccccc3)n2)cc1
1.04,2.67,COc1cccc(-c2nc(NC3CCCC3)c3ccccc3n2)c1O
0.97,-1,Cc1ccc(-c2nc(NCCCO)c3ccccc3n2)cc1
1.75,0.85,CCOC(=O)C(C)Sc1nc(N2CCOCC2)c2c(c1C#N)CC(C)(C)OC2 (centres undefined)
2,0.11,CCN(C(=O)COC(=O)c1c(-c2ccccc2)noc1C)c1c(N)n(Cc2ccccc2)c(=O)[nH]c1=O
0.02,-2.47,Cc1cccc(-n2c(O)c(C=NCCCN3CCOCC3)c3ccccc3c2=O)c1
0.53,-1.35,CC1(C)OC2C(O1)[C@@H](CO)O[C@H]2n1cnc2c(N)ncnc21 (some centres undefined)
0.82,-0.88,Cc1ccc(C23CC4CC(CC(CC(=O)N5CCOCC5)(C4)C2)C3)cc1
0.3,0.46,Cc1csc(NC(C)c2nc3cc(C(F)(F)F)ccc3n2CCOCCO)n1 (centres undefined)

Some of the compounds tested; rates above refer to the full screens.
